Compound activity as filed in PubChem BioAssay.
GIV-Gai inh = inhibitors of GIV GBA-motif binding to rat Galpha-i3. P08753. Galpha-i3/FITC-GIV peptide fluorescence polarization, 90 min; hits give low values; scaled: aluminum fluoride 0%, vehicle 100%. percent of control (FP), % (no concentration beside the values). 210,000 tested, 0.42% active;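 active means replicate mean at 85% of control or lower, very high polarization wells dropped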;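 further: wells of about 15 µL received 100 nL stock; the first replicate is given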
Target sequence (P08753 whole entry, looked up): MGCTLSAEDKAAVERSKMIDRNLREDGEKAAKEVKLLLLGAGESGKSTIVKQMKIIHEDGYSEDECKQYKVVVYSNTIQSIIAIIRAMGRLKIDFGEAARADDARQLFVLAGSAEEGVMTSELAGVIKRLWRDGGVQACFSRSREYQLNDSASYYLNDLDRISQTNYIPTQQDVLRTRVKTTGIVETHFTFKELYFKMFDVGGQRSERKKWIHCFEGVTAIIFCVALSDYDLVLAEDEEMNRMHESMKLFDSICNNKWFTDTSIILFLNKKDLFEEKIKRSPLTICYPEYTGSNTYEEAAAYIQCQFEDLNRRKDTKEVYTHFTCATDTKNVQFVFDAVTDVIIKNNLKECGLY
HCMV NEC inh = inhibitors of HCMV UL50-UL53 nuclear egress complex interaction. HTRF UL50-UL53 interaction, normalized percent inhibition. inhibition, % (test concentration not listed). 190,000 tested, 0.15% active. AID 1918969;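 active means both replicates at 50% or more, plus weaker picks with an unusually low signal ratio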;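 further: stock transfer was 100 nL into about 20 µL; 0% = negative control wells and 100% = wells with untagged competitor protein; inactives centre near -12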
Sa growth inh = S. aureus growth inhibition; S. aureus RN4220 growth, OD600, 20 h, 42 °C; hits give low values; relative growth, % (concentration not given with the values); 170,000 tested, 0.53% active; AID 720641;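 active means growth at 42 °C up to 50% and 20 or more points under that at 30 °C, or under 10% at both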;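 further: 300 nL library stock went into each well; scaled to the means of positive and negative controls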
Sa growth inh second temp = second read-out of Sa growth inh, no call of its own (marks repeat the call); relative growth, %; measured here: growth at 30 °C;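 optical density after 20 h as mean of two plates; 100% = untreated growth and lower means inhibition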
Numbers without * were called inactive; / = no result given; & = joins results of further samples.

SMILES	GIV-Gai inh	HCMV NEC inh	Sa growth inh	Sa growth inh second temp
Cc1ccc(NC(=O)CSC2=NC3(CCCCC3)Nc3ccccc32)cc1	103	/	110	91
CCOc1cccc(/C=N/n2c(=O)[nH]c3ccccc3c2=O)c1OC	/	-4	87	92
c1ccc(CNn2cnnc2)cc1	/	-10	124	93
Cc1ccc(C(=O)Nc2cc(-c3nc4cc(Cl)ccc4o3)ccc2C)c(C)c1	105	-22	113	89
COc1ccc(Cl)cc1NC(=O)c1ccc2c(c1)CCCN2S(C)(=O)=O	102	-15	93	91
COc1ccc(OC)c(CNC(=O)CSc2c3c(nc4cc(Cl)ccc24)CCCC3)c1	102	-36	107	88
O=C(C1CCN(c2nccn3nc(-c4ccccc4)cc23)CC1)N1CCN(Cc2ccccc2)CC1	111	15	/	/
CCCCN(C)S(=O)(=O)c1ccc(-c2ccc(=O)[nH]n2)s1	105	-26	106	92
Cn1c(=O)[nH]c(=O)c2c1nc(N1CCNCC1)n2Cc1ccccc1Cl	105	-7	/	/
COc1ccc(-c2cn3c(n2)sc2cc(C(=O)Nc4c(C)cccc4C)ccc23)cc1	118	/	145	94
CC(Cn1c(=O)c2sccc2n2c(SCc3ccccc3)nnc12)c1ccccc1 (configuration not stated)	102	14	/	/
Cc1cc(=O)oc2c1c(-c1ccccc1)nn2-c1ccccc1	102	-4	99	88
O=S(=O)(NCCn1c(C(F)(F)F)nc2cccnc21)c1ccc(Cl)cc1	104	-21	/	/
Cc1[nH][nH]c(=O)c1C(c1ccncc1)C(C#N)C#N (configuration not stated)	/	-27	84	101
COC(=O)CNC(=O)c1cccc(F)c1	101	3	100	109
FC(F)(F)Sc1ccc2noc(-c3ccccc3)c2c1	109	-34	105	94
Cc1ccc(C(=O)c2coc3c2cc(O)c2ccccc23)cc1	106	-4	114	92
O=C1c2ccc(Oc3ccc4c(c3)C(=O)N(c3ncccn3)C4=O)cc2C(=O)N1c1ncccn1	100	-26	93	98
CCOc1ccc(C2c3[nH]c4ccccc4c3CCN2C(=O)CCc2ccccc2)cc1 (configuration not stated)	101	/	95	107
CCOC(=O)c1c(NC(=O)c2cc3ccccc3c(=O)o2)sc2c1CCC(C)C2 (configuration not stated)	105&105	-5&-2	104	99
O=C(CCCN1C(=O)CCC1=O)Nc1ccc2c(c1)OCCO2	106	-25	101	105
O=C(c1cnc2sccn2c1=O)N(Cc1ccccc1)c1ccccn1	95&105	0	116	85
O=C(Cn1c(=O)oc2ccccc21)NC1CCCc2ccccc21 (configuration not stated)	106	-18	91	95
Cc1cccc(CCNC(=O)C2CCN(S(=O)(=O)c3ccc4[nH]c(=O)ccc4c3)CC2)c1	111	/	90	86
Cc1c(Cl)cccc1-n1ncnc1-c1ccc(N(C)C)cc1	101	-30	94	89
CCC(CC)C(=O)Nc1ncc2c(n1)CC(c1ccc(OC)c(OC)c1)CC2=O (configuration not stated)	104	-32	/	/
O=C(CCC(=O)N1CCSc2ccccc21)NC1CCCC1	101	-19	96	86
CC(C)(C#N)NCc1ccco1	/	1	76	90
CS(=O)(=O)c1sc(C(=O)Sc2ccccc2)c2c1C=CCC2	104	-8	84	85
CC(=O)NC(=O)c1nnn(-c2ccc(C)cc2)c1NC(C)=O	100	-17	87	87

Of the compounds above, 6 have a Cl atom.
SMILES	GIV-Gai inh	HCMV NEC inh	Sa growth inh	Sa growth inh second temp
Cc1ccc(C(=O)Nc2cc(-c3nc4cc(Cl)ccc4o3)ccc2C)c(C)c1	105	-22	113	89
COc1ccc(Cl)cc1NC(=O)c1ccc2c(c1)CCCN2S(C)(=O)=O	102	-15	93	91
COc1ccc(OC)c(CNC(=O)CSc2c3c(nc4cc(Cl)ccc24)CCCC3)c1	102	-36	107	88
Cn1c(=O)[nH]c(=O)c2c1nc(N1CCNCC1)n2Cc1ccccc1Cl	105	-7	/	/
O=S(=O)(NCCn1c(C(F)(F)F)nc2cccnc21)c1ccc(Cl)cc1	104	-21	/	/
Cc1c(Cl)cccc1-n1ncnc1-c1ccc(N(C)C)cc1	101	-30	94	89

Further records:
SMILES	GIV-Gai inh	HCMV NEC inh	Sa growth inh	Sa growth inh second temp
O=C(c1cc(-c2ccccn2)n[nH]1)N1CCCC(C(=O)N2CCc3ccccc32)C1 (configuration not stated)	101	-13	/	/
O=C(O)c1cccc(S(=O)(=O)NNc2ccccc2C(F)(F)F)c1	/	-7	87	78
CCOC(=O)Cn1c(=O)n(Cc2ccc(F)cc2)c(=O)c2cccnc21	103	-1	94	84
CNc1cc(CS(=O)c2ccccc2)nc(-c2ccccc2)n1 (configuration not stated)	104	-10	/	/
COCSc1ccc(C(=O)OCC(=O)c2ccc(Br)cc2)cc1	107	2	98	94
O=c1c(=NNc2nn[nH]n2)c(=O)c2ccccc12	40*	-12	1.4*	0.6*
Cc1cccc(OCCCn2c(=O)sc3ccccc32)c1	101	/	78	89
Cc1sc(-c2cc3ccccc3oc2=O)nc1-c1ccc(Cl)c(Cl)c1	103	/	96	93
C=C(C)CN1CCN(c2cc(C)nc3c(C)c(-c4ccc(C)cc4)nn23)CC1	107	-2	/	/
Cc1n[nH]c(C)c1CC(=O)NCCC1=CCCCC1	105	-4	96	98
CCOC(=O)c1c(CC(C#N)(c2ccccc2)c2ccccc2)oc2ccc(OC)cc12	/	-8	93	93
COc1cc(C(=O)OCC(=O)c2cc(C)n(C)c2C)cc(NC(=O)c2ccco2)c1OC	/	-9	109	91
Cc1cccc(-c2c3c(=O)n(C)c(=O)n(C)c3cn2-c2cc(N)c(Cl)cc2Cl)c1	102	4	99	67
Cc1ccccc1Oc1nc2ccccn2c(=O)c1/C=C(\C#N)c1nc2ccccc2[nH]1	111	-36	106	94
CN(C)S(=O)(=O)c1cc(C(=O)O)c(N2CCOCC2)cc1Cl	98	-15	86	82
O=C(CC1SC(=O)N(CN2CCOCC2)C1=O)Nc1cccc(O)c1 (configuration not stated)	103	/	103	74
COc1cc(NC(=O)c2nn3c(c2Cl)NC(c2ccco2)CC3C(F)(F)F)cc(OC)c1OC (configuration not stated)	90	-20	/	/
COc1ccccc1N1CCN(c2ncnc3sc(C(=O)O)c(C)c23)CC1	115	-3	/	/
COc1cc(-c2nc3ccc(Cl)cn3c2Nc2ccc3c(c2)OCCO3)ccc1O	102	2	102	83
COC(=O)c1ccc(-c2ccco2)n1Cc1cccc(F)c1	126	-1	67	66
COc1ccc(N2CCN(C(=O)CCc3c(C)nn(-c4ccc(N5CCCC5)nn4)c3C)CC2)cc1	99	/	110	91
COc1ccc(C2=NN(C(=O)CCC(=O)O)C(c3ccc(Cl)cc3Cl)C2)cc1 (configuration not stated)	107	-34	/	/
CCCc1cc(=O)[nH]c(SCc2nc3ccccc3[nH]2)n1	/	-19	88	84
CC1CCN(Cc2ccc(NC(=O)C3CCN(c4nnc(-n5cccc5)s4)CC3)cc2)CC1	102	2	92	85
C=CCSc1nc2c(c(=O)[nH]1)CCC2	107	2	/	/
CCN(CC)CCNC(=O)c1c(C)[nH]c(/C=C2\C(=O)Nc3ccc(F)cc32)c1C	295	-125	/	/
CC1CCCC(C)N1C(=O)CSc1nnc(-c2ccccc2)n1N (configuration not stated)	103	-17	108	100
COC(=O)c1ccn(C(=O)c2ccnn2C)n1	/	-14	85	82
CCOc1ccc(-c2nonc2NC(=O)COc2cc(C)c(Cl)c(C)c2)cc1C	109	4	/	/
COc1ccc(NC(=O)N(C)CCc2noc(COc3ccccc3)n2)c(OC)c1	105	0	/	/
COc1ccc(OC(C)C(=O)NCCC2=CCCCC2)cc1 (configuration not stated)	95	-7	102	99
CC(C)CCN1CC(C(=O)NCc2ccccc2)CC1=O (configuration not stated)	104	3	98	97
CN1CCN(C(CNC(=O)c2cccc(Br)c2)c2ccc(N(C)C)cc2)CC1 (configuration not stated)	95	-25	/	/
COc1cc2nc(NC(=O)c3ccccc3)[nH]c(=O)c2cc1OC	109	6	111	90
CC(C)CC1N=C2c3ccccc3N=C(SCC(=O)NCCc3ccc(Cl)cc3)N2C1=O (configuration not stated)	101	/	93	86
COc1ccc(CCNC(=O)c2ccc3c(c2)N(Cc2c(F)cccc2Cl)C(=O)CS3)cc1OC	101	/	123	89
COc1ccccc1C1C=C(c2ccc(Cl)cc2)Nc2nc(-c3ccc(Cl)cc3)nn21 (configuration not stated)	111&102	-25&-12	110	79
COc1ccc(CCNc2ncnc3c2cnn3-c2cccc(Cl)c2)cc1	102	/	111	87
CC(C)(C)c1ccccc1OC(=O)CSc1nc(-c2ccccc2)nc2cc(=O)[nH]n12	99	3	/	/
Cc1ccc(NC(=O)Cn2cc(C(=O)c3ccco3)c3ccccc32)cc1	102	/	136	89
O=C(NCc1ccc(F)cc1)c1ccc(CS(=O)(=O)c2ccc(Cl)cc2)o1	103	/	64	66
CCOC(=O)c1oc2ccccc2c1N=Cc1c(O)n(CC)c(=S)n(CC)c1=O	/	-34	99	93
CN=c1scc(-c2ccc(Br)s2)n1/N=C1\C(=O)Nc2ccccc21	/	-35	126	92
CCC(=O)N1CCc2cc(Br)cc(S(=O)(=O)N(CC)CCN(C)C)c21	101	3	97	92
Cc1nccn1C(=O)c1ccccc1C(=O)O	102	-7	110	110
Cc1ccc(-n2c(=O)c3c(n4c(SCC(N)=O)nnc24)-c2ccccc2CC32CCCCC2)cc1	102	-18	/	/
CC1Cc2cc(S(=O)(=O)N3CCN(c4ccccc4)CC3)ccc2N1C(=O)C1CC1 (configuration not stated)	108	-14	/	/
c1ccc(CCCc2nc(-c3ccccn3)no2)cc1	111	11	100	95
CCCN(CCC)C(=O)Cn1ncc2c3ccccc3n(C)c2c1=O	104	-25	/	/
CCC(=O)Nc1nc(-c2ccc(OC)cc2)cs1	102	20	103	121
Clc1ccccc1CSc1nnc(C2CCNCC2)o1	105	-3	108	84
Cc1cccc(OCC(=O)Nc2nc3c(s2)CC(C(C)(C)C)CC3)c1C (configuration not stated)	100	10	99	83
O=C(O)CCn1c(=O)n(CCC(=O)O)c2c(Cl)cc(Cl)cc21	/	2	115	103
O=C(O)CCNc1ncnc2ccccc12	/	4	95	91
COc1ccc(OC)c(CCNC(=O)c2cnn(-c3ccccc3)c2-n2cccc2)c1	98	-4	98	88
Cc1cccc(N2CCN(C(=O)C3CCN(c4ncnc5c4nc4n5CCCCC4)CC3)CC2C)c1 (configuration not stated)	108	/	79	80
Cc1cccc(NC(=O)CSc2nnc(N)s2)c1	102	12	100	101
COc1ccc(Cn2cc(C(=O)c3ccc(C)c(C)c3)c(=O)c3ccccc32)cc1	99	-30	95	80
Cc1cc(C)n2nc(N3C(=O)CCC3=O)nc2n1	103	-9	99	89
CN(C)C(Cn1c(=S)[nH]c2ccccc2c1=O)c1ccccc1 (configuration not stated)	/	-7	102	87

An excerpt from above in order of number of heavy atoms, highest first:
SMILES	GIV-Gai inh	HCMV NEC inh	Sa growth inh	Sa growth inh second temp
Cc1ccc(-n2c(=O)c3c(n4c(SCC(N)=O)nnc24)-c2ccccc2CC32CCCCC2)cc1	102	-18	/	/
Cc1cccc(OCC(=O)Nc2nc3c(s2)CC(C(C)(C)C)CC3)c1C (configuration not stated)	100	10	99	83
CCCN(CCC)C(=O)Cn1ncc2c3ccccc3n(C)c2c1=O	104	-25	/	/

(list continues)
SMILES	GIV-Gai inh	HCMV NEC inh	Sa growth inh	Sa growth inh second temp
O=C(Nc1nnc(N2CCCCCC2)s1)Nc1cc(F)ccc1F	110	0	81	92
O=C(Oc1ccc(Cl)cc1)c1snnc1-c1ccccc1	100	-18	98	85
Cc1ccc(Cn2c(=O)c3ccccc3n3c(SCC4CCCO4)nnc23)cc1 (configuration not stated)	/	-8	110	93
N#Cc1c(Cl)cccc1-n1cccc1	99	-4	84	56
Cc1c(CC(=O)N2CCCCC2)c(=O)oc2cc3occ(C(C)(C)C)c3cc12	100	-17	96	91
Cc1cc(C)cc(N2C(=O)CSC2c2cccs2)c1 (configuration not stated)	101	/	93	86
Cc1nc2ccccc2n1CC(=O)Nc1cccc(Br)c1	/	16	102	99
NC(=O)c1ccsc1NC(=O)C1=NN(c2ccccc2)C(=O)CC1	/	-24	75	83
COc1ccc(C2C=C(c3ccccc3)Nc3nc(NS(=O)(=O)c4ccc(C)cc4)nn32)cc1 (configuration not stated)	103	-40	90	90
COc1ccc(CNC(=O)CN2N=C(c3ccc(Cl)cc3)CCC2=O)c(OC)c1	105	/	115	84
CC1CCCC(C)N1C(=O)c1cc(-c2ccc3c(c2)OCO3)on1 (configuration not stated)	97	2	103	95
COC(=O)c1ccc(Nc2nc(C)c3nnn(-c4ccc(C(=O)OC)cc4)c3n2)cc1	107	-11	/	/
O=C1NC(=O)N(C2CCCCC2)C(=O)/C1=C\c1ccc(-c2ccc(C(=O)O)cc2)o1	112	-24	84	109
C/C(=N\N=C1/NC(=O)CS1)c1cccc2ccccc12	/	-13	105	90
CN(C)CCNCc1ccc(-c2ccccc2)o1	108&95	-15&-18	107	84
CSCC(CSC)OC(=O)Nc1ccccc1	102	-8	85	83
N#CC1=C(N)Oc2n[nH]c(-c3ccccc3)c2C12C(=O)Nc1ccccc12 (configuration not stated)	99	-21	62	34

Whole records from above. Screens in order: GIV-Gai inh | HCMV NEC inh | Sa growth inh | Sa growth inh second temp
Entry for O=C1NC(=O)N(C2CCCCC2)C(=O)/C1=C\c1ccc(-c2ccc(C(=O)O)cc2)o1 : 112 | -24 | 84 | 109
Entry for Cc1cc(C)cc(N2C(=O)CSC2c2cccs2)c1 (configuration not stated) : 101 | / | 93 | 86
